# VACV E9 pol inh: vaccinia E9 polymerase processive synthesis inhibition; in vitro processive DNA synthesis, absorbance read-out; active compounds read low; some inactives read as strong as hits; normalized absorbance, % (no concentration beside the values); hit rate 0.94% among 46,000;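 active means replicate mean up to 90% and picked by the depositor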;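 further: 100% = median of the test wells of a plate; 100 nL library stock went into each well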
# The depositor's hits bear a star; & = joins results of further samples.
molecule	VACV E9 pol inh
COc1ccc(C2=Cc3ccccc3C(C)(C)O2)cc1	102
COc1ccc(S(=O)(=O)N2CCN=C2SC)cc1	115
CC(=O)Oc1ccc2cc(-c3nc4c(s3)CCc3ccccc3-4)c(=O)oc2c1	102
CC(C)CCn1c(CO)nc2ccccc21	97
CC1=C(/C=C/C(C)=C/C=C/C(C)=C/C(=O)O)C(C)(C)CCC1	98&100
O=C(O)CCN1C(=O)/C(=C/c2ccccc2)SC1=S	100
COc1ccc2cc(-c3nc4ccccc4s3)c(=O)oc2c1	100
COc1ccc(C2C(C#N)=C(SCC(=O)Nc3ccccc3)NC3=C2C(=O)CC(C)(C)C3)cc1 (centres undefined)	87
O=c1[nH]c2ccccc2nc1-c1ccccc1	116
CCS(=O)(=O)Nc1ccc(C2=NN(S(=O)(=O)c3ccccc3)C(c3ccccc3)C2)cc1 (centres undefined)	80
O=C(CNc1ccc(Cl)cc1)c1cc2ccccc2oc1=O	85
CN1C(=O)/C(=C/c2cccc(Cl)c2)Sc2ccc(C(=O)N3CCCCC3)cc21	98
CCOC(=O)c1ccc(NC(=O)CCc2c[nH]c3ccccc23)cc1	100
COc1ccc(C(=O)NC(C)C(c2cccs2)N2CCOCC2)cc1 (centres undefined)	97
Clc1ccc(-c2cnnc(-c3ccccc3)n2)cc1	99
O=C(c1c(Cl)cccc1Cl)N1CCN(Cc2ccccc2)CC1	92
Cc1ccc(S(=O)(=O)NC(=O)NC2CCN(c3nccc(C(F)(F)F)n3)CC2)cc1	110
CC1CC(C)CN(S(=O)(=O)c2ccc(N)cc2)C1 (centres undefined)	88
CCCCn1c(=N)n(CCOc2ccccc2)c2ccccc21	100
O=C(O)c1ccc2nc(CCc3nc4ccc(C(=O)O)cc4[nH]3)[nH]c2c1	105

# Given as labelled records: entries from further up
Cc1ccc(S(=O)(=O)NC(=O)NC2CCN(c3nccc(C(F)(F)F)n3)CC2)cc1
  VACV E9 pol inh: 110
CC1CC(C)CN(S(=O)(=O)c2ccc(N)cc2)C1 (centres undefined)
  VACV E9 pol inh: 88
CCCCn1c(=N)n(CCOc2ccccc2)c2ccccc21
  VACV E9 pol inh: 100
O=C(O)c1ccc2nc(CCc3nc4ccc(C(=O)O)cc4[nH]3)[nH]c2c1
  VACV E9 pol inh: 105

# Continued:
molecule	VACV E9 pol inh
O=C(c1ccccc1)N1CN(C(=O)c2ccccc2)CN(C(=O)c2ccccc2)C1	99
CN(C)c1nc(Oc2ccc(=O)n(C)n2)nc(N2CCCCC2)n1	106
CCN1C(=O)C2(c3ccccc31)c1c(oc3ccccc3c1=O)C(=O)N2CCO (centres undefined)	98
Cc1cc2ccccc2n1CCNC(=O)c1ccc(S(=O)(=O)N(C)C)cc1	101
O=c1[nH]c2ccc(Cl)cc2c2oc(-c3ccccc3)nc12	95
O=C(O)c1ccccc1-c1ccccc1C(=O)Nc1ccccc1O	95
CCO/C=C1\C(=O)N(C)C(=O)c2ccccc21	95
CN1N=C(C(C)(C)C)CSC1=Nc1ccccc1	102
Oc1ccc2ccccc2c1C(c1cccs1)N1CCCCC1 (centres undefined)	111
O=C(CCn1c(=S)[nH]c2c(sc3ccccc32)c1=O)NC1CCCCC1	103
CC(C)N1C(=O)S/C(=C/c2ccccc2OCc2ccc(C(=O)O)cc2)C1=O	100
CC1(C)Oc2ccc3ccc(=O)oc3c2C(/C=N/O)C1=O (centres undefined)	94
CCOC(=O)C1=C(N)CC(c2ccccc2)NC1c1ccccc1 (centres undefined)	98
Oc1sc(-c2ccccc2)cc1C=Nc1ccccc1	100
CNC(=O)CN1C(=O)C2C3C=CC(C3)C2C1=O (centres undefined)	100
Cc1ccc(NC(=O)CC2(C)Nc3ccccc3C(=O)N2c2ccccc2C)c(C)c1 (centres undefined)	106
Cc1noc(C)c1-c1nc(CSc2n[nH]c(=O)n2C2CC2)no1	102
CCN1C(=O)c2cccc3c(S(=O)(=O)Nc4cccc(C)n4)ccc1c23	100
CN[C@@H]1C(O)[C@@H](O[C@@H]2[C@@H](O)[C@H](O[C@H]3OC(CN)=CC[C@H]3N)[C@@H](N)C[C@H]2N)OC[C@]1(C)O (some centres undefined)	100
CCN(CC)Cc1cc(O)c(CN(CC)CC)cc1O	108

# More compounds:
molecule	VACV E9 pol inh
O=C(CCCCl)Nc1ccc(Cl)cn1	99
COc1ccc(-c2cc(C(F)(F)F)nc(SCCC(=O)N3CCCC3)n2)cc1	83
OC(CNCc1ccccc1)COCc1ccc(Cl)cc1 (centres undefined)	90
CCC(=O)Nc1ccccc1C(=O)OCC(=O)Nc1nc2ccc(C(=O)OC)cc2s1	97
Cc1ccc(OCc2ccc(C(=O)N3c4ccccc4CC3C)cc2)cc1C (centres undefined)	99
O=C(OCc1nc2ccccc2s1)c1ccco1	95
N#C/C(=C\N1CCN(C(c2ccccc2)c2ccccc2)CC1)S(=O)(=O)c1ccccc1	100
COc1cc(OCCN2CCOCC2)ccc1C1C(C#N)=C(N)Oc2nc(C(F)(F)F)[nH]c21 (centres undefined)	100
Cc1ccc(N(C)C(=O)CCS(=O)(=O)c2ccc3c(c2)n(C)c(=O)c(=O)n3C)cc1	98
CCC(=O)OC1(c2cccc(C)c2)CC(C)N(C)CC1C (centres undefined)	98
COc1ccc(C2c3ccsc3CCN2C(=O)NC(C)(C)C)cc1 (centres undefined)	98
Cc1ccc(C=Nc2ccccc2OCc2ccccc2)cc1C	100
COc1ccccc1C1C2=C(CC(C)(C)CC2=O)Nc2n[nH]c(C)c21 (centres undefined)	106
O=C(COC(=O)Cc1c[nH]c2ccccc12)Nc1ccccc1	100
O=C1Nc2ccccc2/C1=C/c1ccccc1	95
Cc1cc(C)nc(SCc2nc3sccn3c2Br)n1	104
Cc1cc(/C(=N/O)C(C)(C)NO)ccc1Cl	100
CC1(C)CC(=O)C(C2C3=C(CC(C)(C)CC3=O)Oc3ccccc32)C(=O)C1 (centres undefined)	96
Cc1cc(C)c(S(=O)(=O)N2CCNC(=O)CC2)c(C)c1	88
COC(=O)C1=C(C)OC(N)=C(C#N)C1c1ccc(Cl)cc1 (centres undefined)	126

# Fetched by compound from above (2):
molecule	VACV E9 pol inh
COc1ccc(C2C(C#N)=C(SCC(=O)Nc3ccccc3)NC3=C2C(=O)CC(C)(C)C3)cc1 (centres undefined)	87
N#C/C(=C\N1CCN(C(c2ccccc2)c2ccccc2)CC1)S(=O)(=O)c1ccccc1	100

# (continued)
molecule	VACV E9 pol inh
O=C(CSc1nc(-c2ccc(F)cc2)[nH]c1-c1ccccc1)NC1CCCC1	98
C(=C\c1ccccc1)/CSc1ncnc2c1oc1ccccc12	104
CCOc1ccc(N2C(=O)/C(=C/c3ccc(Cl)cc3)SC2=S)cc1	95
O=C(Oc1cccc(Nc2ncnc3ccccc23)c1)c1cccs1	98
CCC(C)(C)C(=O)NC(c1ccccc1)c1ccccc1	104
CN(C)Cc1c(O)ccc2cc(-c3nc4ccccc4[nH]3)c(=O)oc12	99
COc1ccc(NC(=O)N2CCN(C/C=C/c3ccccc3)CC2)cc1	101
CC(C)NC(=O)CSc1nc(-c2ccc(F)cc2)cc(C(F)(F)F)n1	110
O=C(Cc1ccccc1)Nc1cccc(S(=O)(=O)c2cccc(NC(=O)Cc3ccccc3)c2)c1	100
COc1ccc(C(=O)Nc2ccc3c(c2)C(=O)N(C)C3=O)cc1OC	100
O=C(c1cccnc1)N(C1CCCCC1)C1CCCCC1	100
CS(=O)(=O)NCC(O)Cn1c2ccccc2c2ccccc21 (centres undefined)	107
COC(=O)c1ccc(S(=O)(=O)N2CCCN(Cc3ccccc3)CC2)n1C	102
COc1ccc2c(=O)c(-c3ccccc3)coc2c1	104
CCc1ccc(OCCNC(=O)c2ccco2)cc1	100
COc1cccn(CC(=O)NN)c1=O	93
CCCC(=O)Nc1ccc2c(c1)COC2=O	103
O=C(NC(=S)Nc1ccc(-c2nc3ccccc3o2)cc1)c1cc2ccccc2o1	100
Cc1ccc(CC(=O)N2CCOCC2)cc1	106
CCN(C(=O)CSc1cccc[n+]1[O-])c1ccccc1	106

# Rewritten as labelled records: part of the list above.
O=C(CSc1nc(-c2ccc(F)cc2)[nH]c1-c1ccccc1)NC1CCCC1
  VACV E9 pol inh: 98

C(=C\c1ccccc1)/CSc1ncnc2c1oc1ccccc12
  VACV E9 pol inh: 104

# (list continues)
molecule	VACV E9 pol inh
S=C(S)N1CCCCC1c1cccnc1 (centres undefined)	101
Cc1nn(-c2ccccc2)c2sc(C(=O)NCCCn3ccnc3)cc12	93
O=C(NCc1ccco1)c1cn(-c2ccccc2)nc1-c1cccnc1	107
O=C(Cn1c(=O)oc2cc(S(=O)(=O)NC3CCCCC3)ccc21)N1CCCCCC1	100
CC1CC(C)CN(C(=O)c2ccc3c(c2)N(C)C(=O)/C(=C/c2cccc(Cl)c2)S3)C1 (centres undefined)	98
O=c1/c(=C/c2ccc(N3CCOCC3)cc2)sc2nc3ccccc3n12	100
O=C(Nc1nc2ccc(Cl)cc2s1)C1CN(C(c2ccccc2)c2ccccc2)C1	102
CC(NC(=O)c1ccncc1)C(c1cccs1)N1CCN(c2ccccc2)CC1 (centres undefined)	99
CC1(C)CCCC(C)(C)N1CC(O)COc1ccccc1Br (centres undefined)	108
COC(=O)c1sc2ccccc2c1O	96
CC1CN(C(=S)Nc2cccc(C(F)(F)F)c2)CC(C)O1 (centres undefined)	109
Cc1ccc(CN2C(=O)CSC2=O)cc1	97
COc1ccccc1C1CCN(Cc2sc3ccccc3c2C)CC1	99
O=C(c1ccccc1)N1CCN(C(=O)c2ccccc2)CC1	100
CCCSc1nc2ccccc2n1CC(=O)NCc1ccccc1OC	94
Cc1ccc(CCNC(=O)c2cc3c(C)nccc3[nH]c2=O)cc1	104
CCCC(=O)NCCc1nc2ccccc2n1CCC	93
O=C(/C=C1/Sc2ccccc2N(Cc2ccc(F)cc2)C1=O)N1CCCC1	92
CC1CCCN(S(=O)(=O)c2ccccc2)C1 (centres undefined)	100
Cc1ccc(C(=O)c2oc3ccccc3c2NC(=O)CCCN2C(=O)c3ccccc3C2=O)cc1	99

# Continued; it opens with the 2 that closed the last part.
molecule	VACV E9 pol inh
CC1CCCN(S(=O)(=O)c2ccccc2)C1 (centres undefined)	100
Cc1ccc(C(=O)c2oc3ccccc3c2NC(=O)CCCN2C(=O)c3ccccc3C2=O)cc1	99
CN(C(=O)COC(=O)c1ccc(C(C)(C)C)cc1)c1ccccc1	107
CCCC(=O)Nc1nc(-c2cc3ccccc3oc2=O)cs1	97
COc1cccc(CNC(=O)Cn2ncn3cccc3c2=O)c1	100
CCOc1ccc(C(=O)Nc2c(C)ccc3nsnc23)cc1Br	100
C(#Cc1ccccc1)CN1CCN(c2ccccn2)CC1	103
O=C(Cc1ccccc1)NCC(c1cccs1)N1CCOCC1 (centres undefined)	108
O=C(Nc1ccccc1-c1nc2ccccc2o1)c1ccco1	101
CCOC(=O)c1ccc(-c2coc3cc(OC)c(CC)cc3c2=O)o1	101
COc1ccc(C2CC(c3c(O)c4ccccc4oc3=O)=NCCN2Cc2cccc(C)c2)cc1 (centres undefined)	91
COc1ccc(-c2c(-c3ccc(O)cc3O)n[nH]c2C(F)(F)F)cc1	98
N#CCCn1cc(/C=C2\SC(=S)NC2=O)c(-c2cccc3ccccc23)n1	93
O=C(CCC(=O)c1cccs1)Nc1ccc(OCc2ccccc2)cc1	100
Cc1ccc(-c2nn(-c3ccccc3)cc2C#N)o1	100
CCOc1ccccc1C(=O)NCCc1ccccc1	100
Cc1nn2c(=O)/c(=C/C=C/c3ccccc3)sc2nc1=O	100
CC(C)(C)C(=O)Nc1ccccc1Cc1ccccc1	108
CC(=O)N1CCOc2cc(S(=O)(=O)N3CCCc4ccccc43)ccc21	99
COC(=O)c1cc(S(=O)(=O)NCC2CN(Cc3ccccc3)CN(Cc3ccccc3)C2)oc1C	103
CCC(=O)NC(Nc1sc(C)c(CC)c1C#N)(C(F)(F)F)C(F)(F)F	100
CC(=O)Nc1ccc(NS(C)(=O)=O)cc1	101

# (cont.)
molecule	VACV E9 pol inh
COc1ccc2cc3c(N)nn(C(=O)CCn4c(=S)oc5ccccc54)c3nc2c1	106
CC1CCCCN1CC(O)COc1c(F)cc(Br)cc1F (centres undefined)	95
NC(=O)c1ccccc1NC(=O)COC(=O)CC1CC2CCC1C2 (centres undefined)	92
CC1(C)CC(=O)c2cnc(NCCc3ccccc3)nc2C1	109
CC(CCc1ccccc1)NC(=O)COc1cc(=O)n(C)c2ccccc12 (centres undefined)	88
Cc1onc(-c2ccccc2)c1CN1CCS(=O)(=O)CC1	98
CCc1cccc(NC(=O)c2cccc3c2C(=O)N(CC2CCCO2)C3)c1 (centres undefined)	94
Cc1cc(OCC(=O)Nc2c(C)ccc3nsnc23)ccc1Cl	100
CCc1ccc(C2CC(=O)NC(SCC(=O)Nc3ccccc3)=C2C#N)cc1 (centres undefined)	98
CN(CP(=O)(O)CN1CCOCC1)S(C)(=O)=O	100
Cc1ccc2c(c1)-c1c(cnn1CC(=O)NC1CCCCC1C)CO2 (centres undefined)	99
CC1CCN(C(=O)CSc2ncnc3ccccc23)CC1	102
N#CC1=C(N)SC(N)=C(C#N)C1C1CCCCC1	101
CCOc1ccccc1C1C(C#N)=C(SC)NC(=O)C1C(=O)OC (centres undefined)	100
CC1CC(C)CN(C(=O)c2cn(-c3ccccc3)nc2-c2cccs2)C1 (centres undefined)	98
N=C(N)c1cccc(NC(=O)Nc2cccc(C(=N)N)c2)c1	77*
CCc1ccc(C(=O)Oc2cccnc2)cc1	103
CCC1CCCCN1S(=O)(=O)c1ccc(NC(=O)/C=C/c2ccco2)cc1 (centres undefined)	100
Cc1nc(N2CCN(C)CC2)c(C#N)c(C)c1Br	104
Cc1c(Cc2ccc(F)cc2)c(=O)oc2cc(O)ccc12	94

# Assay outcomes: PubChem, ICCB-Longwood Screening Facility, Harvard Medical School

# Not all compounds are listed, so the mix of outcomes need not match the whole.
